NPYLR7 ag: agonists of mosquito NPYLR7 receptor, primary screen, cell-based, Aedes aegypti, calcium fluorescence, mosquito biting behavior | AID 1259423, 2018 | activation, % at 10 µM | HEK293T NPYLR7/Galpha15, GCaMP6s calcium fluorescence | Aedes aegypti neuropeptide Y-like receptor 7 (NPYLR7) | 270,000 tested, 0.15% active; in the data active = activation above about 40%;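 also: 0% = vehicle and 100% = reference agonist at the receptor; some compounds past the cut are filed as inactive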
NPYLR7 ag max-min: recorded beside NPYLR7 ag, whose call it bears; activation, %; measured here: Max-Min RFU normalised activation; some inactives read as strong as hits;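 span of the calcium signal over five minutes; 0% = vehicle and 100% = native peptide agonist; compound fluorescence can raise it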
Starred values were filed as active, the others as inactive; & = joins results of further samples.

(1) CNc1nc2cnc(Nc3ccc(C(F)(F)F)cc3)cc2n1CC1CC1
(2) Cc1ccc(Cl)cc1-n1c(SCc2ccc(F)cc2)nnc1C(Cc1ccccc1)NC(=O)c1cccc(Cl)c1 (centres undefined)
(3) CCOc1ccc(-n2nnnc2CNC(=O)COc2cccc3c2OC(C)(C)C3)cc1
(4) Cc1cccc(C(N)=NOC(=O)C23CC4CC(CC(C4)C2)C3)c1
(5) CCc1nc2n(n1)C(=O)C(C(c1ccccc1)N1CCN(C)CC1)S2 (centres undefined)
Compound | 1 | 2 | 3 | 4 | 5
NPYLR7 ag max-min | 17 | -7 | 2 | -4 | -11
NPYLR7 ag | 23 | -8 | 5 | -5 | -5

(6) CC1CCN(C(=O)c2ccccc2N2CCC(NC(=O)c3cccc(F)c3)CC2)CC1
(7) CN(C)c1cc(C(=O)NC(C)(C)c2ccc3c(c2)OCO3)ccn1
(8) CN(C)S(=O)(=O)c1cccc(NC(=O)C2Cc3ccccc3S2)c1 (centres undefined)
(9) CNc1ncc(C(=O)c2ccccc2)s1
(10) Cc1noc(C(NCc2ccc(Cl)o2)C(C)C)n1 (centres undefined)
Compound | 6 | 7 | 8 | 9 | 10
NPYLR7 ag max-min | 5 | -22 | 0 | -2 | -5&4
NPYLR7 ag | 14 | -20 | 1 | 1 | -2&5

(11) COc1ccc2[nH]c3c(=O)n(CCCCC(=O)N4CCN(c5ncccn5)CC4)c(=S)[nH]c3c2c1
(12) COCCN(C)C(c1ccccc1)c1ccccn1 (centres undefined)
(13) O=C(c1ccc(F)c(F)c1)N1CCN(c2ccc3nnc(-c4ccco4)n3n2)CC1
(14) Oc1ccc2ccccc2c1C=Nc1ncccn1
(15) CC(=O)N1CCN(c2oc(-c3ccc(COc4ccccc4C)o3)nc2C#N)CC1
Compound | 11 | 12 | 13 | 14 | 15
NPYLR7 ag max-min | -11 | -8 | -5 | 5 | 23
NPYLR7 ag | -8 | -2 | -2 | 7 | 0

(16) O=C(CCl)N1CCCN(C(=O)CN2CCc3sccc3C2c2ccc(Cl)cc2)CC1 (centres undefined)
(17) O=S1(=O)c2cnccc2OC(CN2CCOCC2)CN1Cc1cccs1 (centres undefined)
(18) CCOC(=O)C(Cc1ccc(Cl)cc1)NC(=O)C1CCN(Cc2cccnc2OCC)CC1 (centres undefined)
(19) CC(C)N(CC(=O)N(Cc1ccc(F)cc1)Cc1cccs1)C(=O)Nc1ccc(C(F)(F)F)cc1
(20) CCn1cc(CN2CCN(Cc3ccc(C)o3)C(CCO)C2)c2ccccc21 (centres undefined)
Compound | 16 | 17 | 18 | 19 | 20
NPYLR7 ag max-min | 27 | 20 | -20 | -7 | -2
NPYLR7 ag | 13 | 6 | -15 | -7 | 2

(21) Cn1cc(C#N)cc1C(=O)NCC1COc2ccccc2O1 (centres undefined)
(22) CCCCCCN=C(NC(=O)c1ccc(OC)cc1)OCC(C)C
(23) CCCCCCCCCC(=O)N1CCCC1C(=O)Nc1nnc(-c2cccc(OC)c2)s1 (centres undefined)
(24) CCc1nc(CC#N)nc(N2CCN(C(=O)C3CCC3)CC2)c1Cc1cccc(Cl)c1
(25) O=C(c1csc2c1CCCC2)N1CCN(S(=O)(=O)c2ccccc2F)CC1
Compound | 21 | 22 | 23 | 24 | 25
NPYLR7 ag max-min | 3 | 18 | 24 | 11 | 0
NPYLR7 ag | 6 | 19 | 20 | 1 | 2

The last 4 compounds of the part above lead into the next.
(22) CCCCCCN=C(NC(=O)c1ccc(OC)cc1)OCC(C)C
(23) CCCCCCCCCC(=O)N1CCCC1C(=O)Nc1nnc(-c2cccc(OC)c2)s1 (centres undefined)
(24) CCc1nc(CC#N)nc(N2CCN(C(=O)C3CCC3)CC2)c1Cc1cccc(Cl)c1
(25) O=C(c1csc2c1CCCC2)N1CCN(S(=O)(=O)c2ccccc2F)CC1
(26) CC(=O)NC1=NN(C(C)=O)C2(S1)C(=O)N(Cc1ccccc1)c1c(C)cccc12 (centres undefined)
(27) CCN1CCN(C(c2cccc(Br)c2)C2Sc3nc(C)nn3C2=O)CC1 (centres undefined)
(28) CN(Cc1cc(C#N)ccc1F)C(=O)Nc1ccccc1
(29) CCN(CC)C(=O)C1(NC(=O)c2ccc(=O)[nH]c2)CCCCC1
(30) COc1cc2c(cc1OC)C(c1ccccc1)N(CC(=O)NCC1CCCO1)CC2 (centres undefined)
Compound | 22 | 23 | 24 | 25 | 26 | 27 | 28 | 29 | 30
NPYLR7 ag max-min | 18 | 24 | 11 | 0 | 1 | 2 | 6 | 39 | 7
NPYLR7 ag | 19 | 20 | 1 | 2 | 3 | 2 | 10 | 0 | 12

(31) O=C1CCC(C(=O)N2CCc3ccccc3C2)CN1CCN1CCOCC1 (centres undefined)
(32) CCn1c(C2CCN(C(=O)C(N)CC3CCCC3)CC2)nn(C)c1=O (centres undefined)
(33) COCc1cnc2c(c1SCC(=O)Nc1ccc(C(=O)OC)cc1)c(=O)n(C)c(=O)n2C
(34) O=S(=O)(NCCc1ccc2c(c1)OCO2)c1cccc(F)c1
(35) CCOC(=O)c1ccc(NC(=O)N2CC(=O)N3CCc4cc(F)ccc4C3C2)cc1 (centres undefined)
Compound | 31 | 32 | 33 | 34 | 35
NPYLR7 ag max-min | -7 | 13 | 10 | 0 | 17
NPYLR7 ag | -5 | 14 | 6 | 1 | 32

(36) Cc1cc(CC(C)NC(=O)c2cc3ccccc3s2)n[nH]1 (centres undefined)
(37) CN1CC[C@@H](c2ccc3ccccc3c2)[C@H](O)C1
(38) c1ccc(Cn2c(NCc3ccc4c(c3)OCO4)nc3ccccc32)cc1
(39) O=C(NCc1ccccn1)c1ccc(Nc2c(Oc3ccc4c(c3)CCC4)cnn(-c3ccc(Cl)c(Cl)c3)c2=O)cc1
(40) Cc1nnc(SCCCn2cc(-c3cccc(O)c3)nn2)s1
Compound | 36 | 37 | 38 | 39 | 40
NPYLR7 ag max-min | -7 | 1 | 9&-1 | 12 | 3
NPYLR7 ag | -6 | 2 | 2&-2 | 6 | 6

(41) O=S(=O)(CCCOc1ccc2c(c1)OCO2)NC1CC1
(42) COc1ccc(OC)c(-c2cnc(-c3ccc(CNC(=O)c4cccc(C#N)c4)cc3)[nH]2)c1
(43) CCCC(=O)N(CCOC)Cc1cccc(OS(=O)(=O)c2cccc(C(F)(F)F)c2)c1
(44) CCn1c(C2CCCNC2)nn(CCCc2ccccc2)c1=O (centres undefined)
(45) Cc1cc(O)c(C(c2ccc(Br)cc2)c2c(O)cc(C)[nH]c2=O)c(=O)[nH]1
Compound | 41 | 42 | 43 | 44 | 45
NPYLR7 ag max-min | 12 | 25 | 4 | 2 | 10
NPYLR7 ag | 10 | 8 | 7 | 4 | 6

(46) Cc1ccc(CN(Cc2ccccc2)CC(O)Cc2ccccc2)o1 (centres undefined)
(47) CCc1cc(=O)c2c(C)nn(-c3ccccc3C(F)(F)F)c2[nH]1
(48) CC1CCN(C(=O)c2ccc(S(=O)(=O)NC3CCS(=O)(=O)C3)cc2)c2ccccc2S1 (centres undefined)
(49) CCc1cccc2c(C(CC(=O)NCc3cccc(C(F)(F)F)c3)c3cccc(OC)c3)c[nH]c12 (centres undefined)
(50) O=C(CCS(=O)(=O)c1ccccc1)N1CCN(c2nc3ccc(Cl)cc3s2)CC1
Compound | 46 | 47 | 48 | 49 | 50
NPYLR7 ag max-min | 2 | -4 | 9 | 4 | -3
NPYLR7 ag | -5 | -2 | 8 | 2 | -2

(51) Cc1ccc(C2=NN(CC#N)C(=O)SC2)cc1
(52) O=C1NC2(CCN(Cc3ccccc3Cl)CC2)Nc2ccc(Br)cc21
(53) CCOc1cc(OCC)c2c(C)c(Cl)c(=O)oc2c1
(54) Cc1ccc(C)c(NC(=O)CSc2nnc(CCC(=O)O)c(=O)[nH]2)c1
(55) Cc1cc(C(=O)N2CCOC(Cc3ccccc3)C2)co1 (centres undefined)
Compound | 51 | 52 | 53 | 54 | 55
NPYLR7 ag max-min | 6 | 7 | -1 | 8 | 8
NPYLR7 ag | 1 | 1 | 2 | 11 | -6

(56) COC(=O)C1=C(C)NC(=S)NC1c1ccc(C(=O)OC)cc1 (centres undefined)
(57) CCC(C)NC(=O)C(NC(=O)c1ccccc1F)C1CCN(C(=O)Nc2ccc(C)cc2)CC1 (centres undefined)
(58) COc1cc(Nc2ncnc3c2cnn3-c2ccc(Cl)cc2)cc(OC)c1OC
(59) CC(CCc1ccccc1)NC(=O)c1cncn1-c1cccc(-c2ccccc2C(F)(F)F)c1 (centres undefined)
(60) O=C(CSc1nnc(-c2ccccc2)n1-c1ccccc1)N/N=C\c1ccccc1Cl
Compound | 56 | 57 | 58 | 59 | 60
NPYLR7 ag max-min | -1 | 8 | 1 | 2 | -7
NPYLR7 ag | 3 | 7 | 2 | 3 | -3

(61) O=C(c1n[nH]c2ccccc12)N1CCOC(c2ccccc2)C1 (centres undefined)
(62) O=C(O)C1C2C=CC(O2)C1C(=O)NCc1ccccc1Br (centres undefined)
(63) COC(=O)c1cc(C2CC2)nc2c1c(-c1ccc(C)cc1)nn2C1CCS(=O)(=O)C1 (centres undefined)
(64) c1cnc(Oc2ccc(CNCc3cccnc3N3CCOCC3)cc2)nc1
(65) Cc1n[nH]c(C)c1Sc1ccccc1NC(=O)Cc1cccnc1
Compound | 61 | 62 | 63 | 64 | 65
NPYLR7 ag max-min | 31 | -2 | 5 | 14 | 1
NPYLR7 ag | 21 | -1 | 3 | 27 | 5

(66) CN(C)c1ccc(CN2CCC(Cc3ccc(C(F)(F)F)cc3)CC2)c2ccccc12
(67) CCCc1nc2oc3cc(OC)ccc3c(=O)c2c(=O)n1CCc1ccccc1
(68) O=C1CN(C(=O)c2cccs2)CC(O)CN1Cc1ccc2c(c1)OCO2 (centres undefined)
(69) NS(=O)(=O)c1ccc(C(=O)Nc2ccc(-c3ccc(N4CCCC4)nn3)cc2)cc1
(70) COc1ccc(-c2cccc(-c3ccc(NC(=O)c4oc5ccccc5c4C)cc3)n2)cc1
Compound | 66 | 67 | 68 | 69 | 70
NPYLR7 ag max-min | 12 | 0 | 28 | 7 | 51*
NPYLR7 ag | 1 | 4 | 25 | 19 | 43*

(71) CCN(CC)Cc1cnc2c(C(=O)NCc3c(C)noc3C)cnn2c1
(72) CCCCN(Cn1ncn(C)c1=S)Cn1ncn(C)c1=S
(73) CC(=O)c1ccc(OCC(=O)Nc2cc(C(N)=O)cc(C(N)=O)c2)cc1
(74) CCCC1CC(C)(C(=O)Cn2[nH]c(=O)ccc2=O)OC1=O (centres undefined)
(75) Cc1ncc(CO)c(CN(C)CC2COc3ccccc3O2)c1O (centres undefined)
Compound | 71 | 72 | 73 | 74 | 75
NPYLR7 ag max-min | 1 | 6 | -3 | -5 | 11
NPYLR7 ag | 7 | 8 | -2 | -6 | 16

(76) CC(=O)Nc1cccc(NC(=O)CSc2nc(=O)n3cc(C)ccc3n2)c1
(77) Cc1ccc(-c2nc(C)c(C(=O)N3CCC(N4CCOCC4)C3)s2)o1 (centres undefined)
(78) C=CCc1c(C)nc(SCCCC)[nH]c1=O
(79) CCn1nnc2c(=O)n(Cc3ccccn3)cnc21
(80) O=C(Nc1cccc2ccccc12)O/N=C(/c1ccccc1)c1ccccn1
Compound | 76 | 77 | 78 | 79 | 80
NPYLR7 ag max-min | 3 | 1 | 1 | 8 | 0
NPYLR7 ag | 1 | 5 | 9 | 5 | -1

(81) Cn1c(=O)c2c(nc3n(CCN4CCOCC4)c(C(C)(C)C)cn23)n(C)c1=O
(82) Cc1nn(C)c(C)c1CN(Cc1ccc2nonc2c1)C1CC1
(83) CN(C(=O)c1ccc(-n2cccc2)cc1)C1Cc2ccccc2C1
(84) N#Cc1ccc(COC(CN2CCN(C(=O)c3ccc(Cl)cc3)CC2)c2cccc(N3CCCC3)c2)cc1 (centres undefined)
(85) COCCn1c(SCC(=O)NCCC(C)C)nc2sc(-c3ccccc3)cc2c1=O
Compound | 81 | 82 | 83 | 84 | 85
NPYLR7 ag max-min | 3 | -1 | 3 | 2 | 8
NPYLR7 ag | 0 | 1 | -1 | 7 | 0

(86) COc1ccc2c(c1)CN(C(=O)NNC(=O)c1ccccc1C)CC2
(87) N=c1oc2ccccc2c2cc(-c3ccccc3)nc(N)c12
(88) CC1(C)ON=C(c2ccc(F)cc2)N(Cc2ccc3c(c2)OCO3)C1=O
(89) CN(Cc1cc([N+](=O)[O-])ccc1Cl)C(=O)Cn1cnc2ccccc2c1=O
(90) CCc1nc(C)ccc1OC(=O)C12CC3CC(CC(C3)C1)C2
Compound | 86 | 87 | 88 | 89 | 90
NPYLR7 ag max-min | 10 | -13 | 2 | -11 | 6
NPYLR7 ag | 15 | -7 | 5 | -9 | 8

Continued, overlapping the part above by 4 compounds.
(87) N=c1oc2ccccc2c2cc(-c3ccccc3)nc(N)c12
(88) CC1(C)ON=C(c2ccc(F)cc2)N(Cc2ccc3c(c2)OCO3)C1=O
(89) CN(Cc1cc([N+](=O)[O-])ccc1Cl)C(=O)Cn1cnc2ccccc2c1=O
(90) CCc1nc(C)ccc1OC(=O)C12CC3CC(CC(C3)C1)C2
(91) COC(=O)c1ccc2c(c1)CC(CNC(=O)c1c(-c3ccccc3)noc1C)O2 (centres undefined)
(92) O=C(CNc1ccccc1N1CCCC1=O)NCc1ccco1
(93) Cc1cccnc1CN1CCN(Cc2[nH]c3ccc(Cl)cc3c2C)CC1
(94) O=C(NCC1CC1)c1nn(-c2ccc(Cl)cc2)c(=O)n(Cc2cccc(F)c2)c1=O
(95) O=C(Cn1cnc2sccc2c1=O)NC1CC1
(96) COc1ccc(-c2cnc(-c3cccc(CNC(=O)C(C)(C)OC(C)=O)c3)[nH]2)cc1
Compound | 87 | 88 | 89 | 90 | 91 | 92 | 93 | 94 | 95 | 96
NPYLR7 ag max-min | -13 | 2 | -11 | 6 | 28 | 3 | -4 | 9 | 10 | 1
NPYLR7 ag | -7 | 5 | -9 | 8 | 21 | 6 | -3 | 14 | 11 | 4

Source: PubChem (Fisher Drug Discovery Resource Center)

An excerpt (hit frequency here may not be typical).
